A1 inh: blocks A1 activity; MEF A1-2A-BIM cells, caspase-Glo luminescence, 3 h; percent of clofoctol signal, DMSO as zero; caspase activation, % (no concentration beside the values); actives 0.51% (n = 21,000); AID 2241;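 active = most replicate scores above 10, or exactly half above 10 with mean activity above 10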;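 also: effector caspase 3 and 7 activity cleaving a DEVD luciferin substrate; 50 nL library stock added to about 30 µL; numbers are from one replicate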
BJeLR viab HTS: BJeLR cell viability reduction. actives 0.64% (n = 30,000). BJeLR fibroblasts viability, CellTiterGlo ATP luminescence, 48 h; HRASV12, hTERT and SV40 LT/ST transformed. viability loss activity score, % (concentration not given with the values); in the data active = viability loss activity score above about 50%; about a fifth of its hits are not listed in these tables;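 also: higher score means fewer live cells and less ATP luminescence; stock transfer was 50 or 100 nL into about 30 µL; 0% = vehicle wells and 100% = a reference killing control; one replicate is shown; the record names a cut of 85%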
* marks the source's active call; other numbers are inactive results; . = no result given. Not all compounds are listed; rates above refer to the full screens.

SMILES	A1 inh	BJeLR viab HTS
CCOc1ccc(N(C(C)C(=O)N(C)Cc2ccccc2)S(C)(=O)=O)cc1 (centres undefined)	.	-0.4
CCC(C)NC(=O)Cn1cnc2c1c(=O)n(C)c(=O)n2C (centres undefined)	0.5	1.9
O=C(CCn1nc(-c2ccccc2)ccc1=O)NC1CC1	1.2	0.5
C[C@@H]1CN([C@@H](C)CO)C(=O)c2cc(NC(=O)CCC(F)(F)F)ccc2O[C@@H]1CN(C)Cc1ccccc1	-0.3	-3.5
CCCCN(C)Cc1c(O)ccc2c(=O)c(-c3ccccc3OC)c(C(F)(F)F)oc12	1.0	1.6
C[C@@H]1CN([C@H](C)CO)C(=O)c2cccc(NC(=O)C3CCOCC3)c2O[C@@H]1CN(C)C(=O)Nc1ccc2c(c1)OCO2	.	3.8
CC(C)c1ccccc1Oc1coc2cc(OCC(=O)NC3CCCCC3)ccc2c1=O	-0.3	1.5
C[C@@H]1CN([C@@H](C)CO)C(=O)c2cc(NC(=O)Cc3ccccc3)ccc2O[C@@H]1CN(C)Cc1ccc(-c2ccccc2)cc1	0.8	-2.2
N#Cc1c2c(c(Nc3ccccc3)n3c1nc1ccccc13)CCC2	.	5.7
O=C(Nc1cccc(NC(=S)NC(=O)c2ccco2)c1)c1ccccc1	1.0	-6.1
CC(=O)Nc1cccc(NS(=O)(=O)c2ccc(C)cc2)c1	-1.7	11
C[C@H](CO)N1C[C@H](C)[C@H](CN(C)S(=O)(=O)c2cn(C)cn2)Oc2c(NS(=O)(=O)c3cn(C)cn3)cccc2C1=O	.	0.6
CC(C)c1ccc2c(c1)CCC1[C@](C)(C(=O)O)CCC[C@]21C (some centres undefined)	0.2	1.7
CCOC(=O)CCc1ccc(OCc2ccccc2)c(I)c1	-1.1	-2.3
COc1ccccc1OCc1ccc(C(=O)NCC(C)C)o1	-0.2	-2.4
COc1cc(/C=C/C=O)cc(OC)c1OC	0.0	-0.1
Cc1ccc(N(Cc2ccc(C(=O)O)cc2)S(C)(=O)=O)cc1C	-0.3	-2.2
C=CCSc1ncc2c(=S)[nH]c(=S)[nH]c2n1	-1.6	5.9
C[C@@H]1CN([C@H](C)CO)C(=O)c2cccc(NS(C)(=O)=O)c2O[C@H]1CN(C)Cc1ccc(C(=O)O)cc1	.	-0.4
CC(C)(C)NC(=O)N1CCN(c2nc(-c3ccccc3)ns2)CC1	.	-3.9
CCOc1ccc(C(=O)N2CCCC2)cc1	0.1	-0.3
Cc1ccc(S(=O)(=O)N(C)/N=C/c2cccc(Br)c2)cc1	-0.3	0.3
N#Cc1nc(-c2ccccc2)oc1NCc1ccco1	.	-0.4
O=C(CCc1nnc2n(Cc3ccc(F)cc3)c(=O)c3ccccc3n12)NC1CCCCCC1	0.2	-0.7
O=C(Nc1c(C(=O)N2CCCCC2)cnn1-c1ccccc1)c1ccccc1	0.3	4.0
CNC[C@H]1Oc2c(NC(=O)C3CC3)cccc2C(=O)N([C@@H](C)CO)C[C@@H]1C	.	-2.2
c1ccc(N=c2scc(-c3cccs3)n2-c2ccccc2)cc1	-0.3	7.2
O=C(Nc1ccccc1)N(O)c1ccc(Cl)cc1	.	0.2
CN(C)CC#Cc1cncc(C(=O)NN)c1	0.1	9.3
CN1CCN(S(=O)(=O)c2cccc3cccnc23)CC1	1.7	0.1
C[C@H]1CN([C@@H](C)CO)C(=O)c2cc(NC(=O)c3ccncc3)ccc2O[C@@H]1CN(C)S(C)(=O)=O	0.2	2.1
C[C@H](CO)N1C[C@H](C)[C@H](CN(C)Cc2ccc(Oc3ccccc3)cc2)Oc2ccc(NC(=O)Nc3ccccc3)cc2C1=O	0.1	0.5
O=c1cc(-c2ccc(O)c(O)c2)oc2c(C3OC(CO)C(O)C(O)C3O)c(O)cc(O)c12 (centres undefined)	-0.6	-3.8
O=C(C1CCCN(S(=O)(=O)c2ccccc2)C1)N1CCCCC1 (centres undefined)	0.5	-3.7
Cc1noc(C)c1NC(=O)Nc1cccc2c1O[C@H](CN(C)CC1CCCCC1)[C@@H](C)CN([C@H](C)CO)C2=O	.	-3.8
CNC[C@H]1Oc2c(NC(=O)c3cc(C)nn3C)cccc2C(=O)N([C@@H](C)CO)C[C@H]1C	.	-1.4
N/C(=N/c1nc2ccccc2o1)NC(=O)c1ccccc1NC(=O)c1ccccc1	-1.4	1.4
COC(=O)c1cc(=O)n(C)c(=Nc2ccc(F)cc2)s1	.	-1.8
COc1ccc(S(=O)(=O)Nc2ccc3c(c2)C(=O)N([C@H](C)CO)C[C@H](C)[C@H](CN(C)S(=O)(=O)c2ccc(F)cc2)O3)cc1	0.6	-1.8
C=CC[C@]12C[C@@H](OC)C(=O)C(OC)=C1O[C@@H](c1cc(OC)c3c(c1)OCO3)[C@@H]2C	-0.5	-3.4
C[C@H](CO)N1C[C@H](C)[C@@H](CN(C)S(C)(=O)=O)Oc2c(NC(=O)c3ccncc3)cccc2C1=O	.	-5.1
O=C(OCCn1ncc2ccccc2c1=O)c1ccc(F)cc1Cl	-1.7	-1.1
Oc1ccc(Br)cc1C=NCC12CCC3CC(CC(C3)C1)C2	-0.1	1.0
Cc1ccc(NC(=O)CSc2nc3c(sc4ccccc43)c(=O)n2CC2CCCO2)cc1C (centres undefined)	33*	1.4
C[C@@H]1CN([C@H](C)CO)C(=O)c2cc(NC(=O)C3CCCCC3)ccc2O[C@H]1CN(C)Cc1ccc2c(c1)OCO2	-0.2	-0.7

In a second layout: results already given
Under each structure: A1 inh	BJeLR viab HTS
N/C(=N/c1nc2ccccc2o1)NC(=O)c1ccccc1NC(=O)c1ccccc1
→ -1.4	1.4
COC(=O)c1cc(=O)n(C)c(=Nc2ccc(F)cc2)s1
→ .	-1.8

Following part.
SMILES	A1 inh	BJeLR viab HTS
CC1CCCCN1S(=O)(=O)c1ccc(C(=O)O)cc1 (centres undefined)	0.6	-1.4
CC(Sc1cn(CCNC(=O)c2cccs2)c2ccccc12)c1ccccc1 (centres undefined)	.	8.2
CCSc1nnc2n(/N=C/c3cccs3)cnn12	0.7	-4.7
C[C@@H]1O[C@@H](Oc2cc(O)c3c(=O)c(-c4ccc(O)cc4)coc3c2)[C@H](O)[C@H](O)[C@H]1O	-0.2	10.0
CSc1c(C#N)c(-c2cccs2)nn1CNC(=O)Nc1ccccc1C(F)(F)F	-0.5	-6.1
C[C@H]1CN([C@@H](C)CO)C(=O)c2cc(NC(=O)Cn3cnnn3)ccc2O[C@H]1CN(C)S(C)(=O)=O	0.1	1.7
COc1cccc(NC(=O)c2oc3ccc(S(=O)(=O)N4CC(C)CC(C)C4)cc3c2C)c1 (centres undefined)	0.2	2.2
CC1OC(Oc2cc(O)c3c(=O)c(OC4OCC(O)C(O)C4O)c(-c4ccc(O)cc4)oc3c2)C(O)C(O)C1O (centres undefined)	-0.3	-6.6
Cc1ccc(S(=O)(=O)Nc2ccc3c(c2)C(=O)N([C@H](C)CO)C[C@H](C)[C@H](CN(C)Cc2ccc(Oc4ccccc4)cc2)O3)cc1	0.2	-1.1
CNS(=O)(=O)c1ccc(Br)cc1I	-0.3	4.6
Cc1cc(/C=C2/SC(=O)N(c3ccccc3)C2=O)c(C)n1-c1cccnc1	-6.3	10
Cc1noc(C)c1S(=O)(=O)Nc1cccc2c1O[C@H](CN(C)S(=O)(=O)c1ccc(F)cc1)[C@H](C)CN([C@H](C)CO)C2=O	.	-0.6
CC(C)NC(=O)N(C)C[C@@H]1Oc2ccc(NC(=O)C3CCCCC3)cc2C(=O)N([C@@H](C)CO)C[C@@H]1C	1.6	2.0
C[C@H](CO)N1C[C@H](C)[C@H](CN(C)S(=O)(=O)c2cccs2)Oc2ccc(NC(=O)Nc3ccccc3)cc2C1=O	1.4	4.7
COc1cccc(CN(C(=O)/C=C/c2ccccc2)C2CCS(=O)(=O)C2)c1 (centres undefined)	0.2	-2.2
C[C@@H]1CN([C@@H](C)CO)C(=O)c2cc(NS(=O)(=O)c3cccs3)ccc2O[C@@H]1CN(C)S(C)(=O)=O	-0.3	-1.4
CC(=O)O[C@@H]1CC2C(C)(C)CCC[C@]2(CO)C2=C1C(=O)C(C(C)C)C(=O)C2=O (some centres undefined)	-0.9	-8.2
COc1ccc(NC(=O)N(C)C[C@H]2Oc3c(NC(=O)Nc4c(C)noc4C)cccc3C(=O)N([C@@H](C)CO)C[C@H]2C)cc1	.	0.2
O=C1OC(c2ccccc2)C(O)(c2ccccc2)C12CCCCC2 (centres undefined)	.	-0.2
COc1ccc(S(=O)(=O)N(C)C[C@@H]2Oc3c(NC(=O)Nc4ccc(C(F)(F)F)cc4)cccc3C(=O)N([C@H](C)CO)C[C@H]2C)cc1	.	-3.5
O=C(N=CNC(=O)c1cccnc1)c1cccnc1	-0.3	12
C[C@H](CO)N1C[C@H](C)[C@H](CN(C)S(C)(=O)=O)Oc2ccc(N(C)C)cc2C1=O	-0.3	-0.5
c1ccc2c(c1)nc(SC1CCCCC1)c1nncn12	.	0.3
COc1ccccc1N1C(=O)CCC1(C#N)c1ccc(OCc2ccccc2)cc1 (centres undefined)	-0.6	12
C=CCNC(=O)c1ccc2c(c1)N(Cc1cccc(Cl)c1)C(=O)c1ccccc1S2	-0.5	-1.6
CCC(=O)Nc1cc(C(=O)O)ccc1Sc1ccc(OC)cc1	0.8	-2.3
CC(C)NC(=O)Nc1cccc2c1O[C@H](CN(C)C(=O)Nc1ccc(C(F)(F)F)cc1)[C@H](C)CN([C@@H](C)CO)C2=O	.	-3.1
COc1ccc(S(=O)(=O)NCCC(=O)NC2CCCCC2)cc1	-0.6	6.3
O=c1cc(-c2ccccc2)oc2ccc(O)cc12	-5.0	5.1
COc1ccc(CN=C(Nc2ccccc2)SC2CC(=O)N(C)C2=O)cc1 (centres undefined)	0.1	-3.0

Sorted by value in A1 inh (low to high): 3 from the list above.
| compound | A1 inh |
| --- | --- |
| COc1ccc(S(=O)(=O)NCCC(=O)NC2CCCCC2)cc1 | -0.6 |
| C[C@@H]1CN([C@@H](C)CO)C(=O)c2cc(NS(=O)(=O)c3cccs3)ccc2O[C@@H]1CN(C)S(C)(=O)=O | -0.3 |
| COc1ccc(CN=C(Nc2ccccc2)SC2CC(=O)N(C)C2=O)cc1 (centres undefined) | 0.1 |

Arranged by length of the SMILES (rising): part of the list above
SMILES	A1 inh	BJeLR viab HTS
O=C1OC(c2ccccc2)C(O)(c2ccccc2)C12CCCCC2 (centres undefined)	.	-0.2
CC(=O)O[C@@H]1CC2C(C)(C)CCC[C@]2(CO)C2=C1C(=O)C(C(C)C)C(=O)C2=O (some centres undefined)	-0.9	-8.2
CC(C)NC(=O)Nc1cccc2c1O[C@H](CN(C)C(=O)Nc1ccc(C(F)(F)F)cc1)[C@H](C)CN([C@@H](C)CO)C2=O	.	-3.1

Next part
SMILES	A1 inh	BJeLR viab HTS
O[C@@H]1[C@@H](O)[C@H](OC/C=C/c2ccccc2)O[C@H](CO[C@@H]2OC[C@H](O)[C@H](O)[C@H]2O)[C@H]1O	0.6	14
C[C@H]1CN([C@@H](C)CO)C(=O)c2cccc(NS(=O)(=O)c3cn(C)cn3)c2O[C@H]1CN(C)Cc1ccc2c(c1)OCO2	.	1.1
Cc1noc(C)c1NC(=O)Nc1cccc2c1O[C@H](CN(C)C(=O)Nc1c(C)noc1C)[C@H](C)CN([C@@H](C)CO)C2=O	.	5.5
C[C@H](CO)N1C[C@H](C)[C@@H](CN(C)Cc2ccc(C(F)(F)F)cc2)Oc2c(NS(=O)(=O)c3cn(C)cn3)cccc2C1=O	.	-4.6
C[C@@H]1CN([C@H](C)CO)C(=O)c2cc(NC(=O)Nc3cccc4ccccc34)ccc2O[C@H]1CN(C)CC1CCCCC1	-0.4	2.5
CC1=CC(=O)C2=C(C)CC[C@@H]3[C@H](OC(=O)[C@H]3C)[C@@H]12	-1.1	-2.7
COc1ccc(CN(C)C[C@@H]2Oc3c(NC(=O)Nc4cccc5ccccc45)cccc3C(=O)N([C@@H](C)CO)C[C@@H]2C)cc1	.	7.2
CNS(=O)(=O)c1ccc2c(c1)oc(=O)c1cc(S(=O)(=O)NC)ccc12	.	0.7
C[C@H]1CN([C@@H](C)CO)C(=O)c2cc(NC(=O)Nc3ccc4c(c3)OCO4)ccc2O[C@H]1CN(C)S(=O)(=O)c1cn(C)cn1	-0.4	-1.3
CC1=C(C(=O)NN)Sc2ccccc2N1	-0.1	-4.9
COc1cc2c(cc1NC(=O)c1ccccc1)oc1ccccc12	0.3	6.5
COc1ccc(OC)c(-n2cc(-c3ccccc3)nc2SC)c1	1.1	-0.8
C[C@H](CO)N1C[C@H](C)[C@@H](CN(C)S(=O)(=O)c2ccccc2)Oc2ccc(NC(=O)CCC(F)(F)F)cc2C1=O	0.6	1.5
N#CCCN(Cc1cccnc1)C(=S)NC1CC2C=CC1C2 (centres undefined)	-0.2	-0.8
CC1CCCN(c2ccc3nc4ccccc4c(=O)n3n2)C1 (centres undefined)	-6.7	12
C[C@@H]1CN([C@H](C)CO)C(=O)c2cc(NC(=O)CCCCCC(=O)Nc3ccccc3N)ccc2O[C@H]1CN(C)C(=O)Nc1ccc2c(c1)OCO2	.	-1.2
N#Cc1ccccc1NC(=O)Nc1cccs1	-0.5	-1.9
C[C@H]1CN([C@@H](C)CO)C(=O)c2cc(NC(=O)CCC(F)(F)F)ccc2O[C@H]1CN(C)S(=O)(=O)c1cn(C)cn1	0.4	-2.4
O=S(=O)(NCC(Nc1ccccc1)c1ccccc1)c1ccccc1 (centres undefined)	-0.5	-1.5
C/C(C=Nc1c(C)n(C)n(-c2ccccc2)c1=O)=C/c1ccccc1	-0.3	3.9
